RVFV N-RNA inh: inhibitors of RVFV nucleoprotein–RNA binding, primary screen, biochemical, fluorescence polarization | P21700 | RVFV N-RNA binding; hits give low values | % bound, % (concentration not given with the values) | 20,000 tested, 0.1% active | AID 651828, 2012;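 active = between 0 and 58% in either replicate with normal brightness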;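 note: 100 nL library stock added to about 12 µL; 100% = protein and probe without compound and 0% = probe alone; numbers are from one replicate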
Target sequence (P21700 whole entry, looked up): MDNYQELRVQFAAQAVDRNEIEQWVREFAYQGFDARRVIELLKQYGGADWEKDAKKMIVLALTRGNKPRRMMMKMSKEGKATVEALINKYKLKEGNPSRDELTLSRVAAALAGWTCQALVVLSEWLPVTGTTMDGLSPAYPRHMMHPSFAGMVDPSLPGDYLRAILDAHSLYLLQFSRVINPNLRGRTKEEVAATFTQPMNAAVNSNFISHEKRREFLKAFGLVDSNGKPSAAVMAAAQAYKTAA
Active calls of the source: *. A portion of the library (hit frequency here may not be typical).

SMILES	RVFV N-RNA inh
COCC(=O)N1N=C(c2cccc(NS(C)(=O)=O)c2)CC1c1ccccc1F (configuration not stated)	90.5
CNc1nnc(Sc2nnc(NC)s2)s1	82.5
N#C/C(=C\c1ccco1)C(=O)C1CC1	91.2
COc1cccc(C(=O)N(C)CC(OC)OC)c1	93.7
Nc1cc(=O)[nH]c(SCC(=O)Nc2ccccc2)n1	98.1
CC(=O)Oc1ccc(-c2nc3cc(Cl)ccc3o2)cc1	92.2
O=C(NCC(c1ccco1)N1CCN(c2ccccc2)CC1)c1ccccc1 (configuration not stated)	100.4
CC1(C)OC(=O)C(=C2C3CC4CC(C3)CC2C4)C(=O)O1	98.3
O=C1NCCc2[nH]c(-c3ccncc3)cc21	106.0
N#C/C(=C\c1cccs1)C(N)=O	92.8
CCOc1ccc(NC(=O)COc2nsnc2N2CCOCC2)cc1	92.5
O=C1CC(C(=O)c2ccccc2)N=C(N2CCOCC2)N1 (configuration not stated)	87.2
CN1C(=O)/C(=C/c2ccc(C(=O)OCCN3CCOCC3)cc2)SC1=S	92.5
CCn1c(=S)[nH]c2ccc(Br)cc2c1=O	96.7
CCC(=O)N1N=C(c2ccco2)CC1c1cn(-c2ccccc2)nc1-c1ccc(OC)cc1 (configuration not stated)	83.8
CCC(=O)NC(Nc1cc(C)ccn1)(C(F)(F)F)C(F)(F)F	89.7
CCCN(CCC)S(=O)(=O)c1ccc(CC)cc1	100.0
CCc1c(O)nc(SCc2ccccc2)n(C2CCCCC2)c1=O	92.2
Cc1nccn1CC(=O)N/N=C/c1cccn1C	97.4
O=C1C[C@H]2[C@H](CO)[C@@H](OC(=O)c3ccc(-c4ccccc4)cc3)C[C@H]2O1	97.5
CCOP(=S)(NC(C)(C)C)OCC	90.9
COc1ccc(CC(=O)c2ccc(OC)cc2O)cc1	98.1
COc1ccc(N2CC(NS(C)(=O)=O)CC2=O)cc1 (configuration not stated)	95.4
O=C(Nc1ccc(Cl)cc1)c1csnn1	94.8
O=C(CSc1nc(=O)n(Cc2ccncc2)c2c1CCCC2)Nc1ccccc1	92.4
Going on with the list.
SMILES	RVFV N-RNA inh
Cc1cc(-c2ccc(N=Nc3ccc4c(S(=O)(=O)O)cc(S(=O)(=O)O)c(N)c4c3O)c(C)c2)ccc1N=Nc1ccc2c(S(=O)(=O)O)cc(S(=O)(=O)O)c(N)c2c1O	62.7
CCN(CC)CCCCCCCCOC(=O)c1cc(OC)c(OC)c(OC)c1	94.0
COC(=O)C(C)Sc1ncnc2c1cnn2-c1ccccc1 (configuration not stated)	98.2
COC(=O)c1ccccc1NC(=O)c1ccoc1C	91.1
CC(=O)NC1C(OCc2ccccc2)OC(CO)C(O)C1OCc1ccccc1 (configuration not stated)	88.6
Cc1cnc(SCc2cnc(C)nc2N)nc1	93.3
O=c1[nH]c(CSc2ncccn2)nc2ccccc12	85.7
O=S(=O)(c1ccc(NC(=S)Nc2ccc3c(c2)OCO3)cc1)N1CCOCC1	98.5
CC1CCCCN1S(=O)(=O)c1cn(C)c(=O)n(C)c1=O (configuration not stated)	99.7
COC(=O)/C(=C/N(C)C)NC(=O)c1ccccc1	108.9
CCc1cc(-c2nc(N)ncc2-c2ccc(OC)cc2)c(O)cc1OC	93.2
CCSc1nc2ccccc2n1C(CC(=O)O)C(=O)O (configuration not stated)	91.3
Cn1nc2n(c1=O)-c1ccccc1SC2	93.8
CC(C)c1ccc(NNC(=O)C2CCC2)cc1	91.3
CC(C)Cn1c(NC(=O)NC(C)(C)C)c2ccccc2nc1=O	93.9
c1csc(-c2csc3ncnc(NC4CCCC4)c23)c1	100.4
Cc1c(O)ccc(C(=O)CN2CCN(c3ccc(F)cc3)CC2)c1O	91.6
N#C/C(=C\c1ccc(O)c(O)c1)C(=O)c1ccc(O)c(O)c1	93.8
CCc1ccccc1NNC(=O)c1cc(C)on1	99.9
COCc1cc(=O)[nH]c(-c2ccc(C(F)(F)F)cn2)n1	100.9
Cn1nnc2cc(NC(=O)NCc3ccco3)ccc21	88.7
CN1CCN(c2c(F)cc3c(=O)c(C(=O)O)cn(CCF)c3c2F)CC1	95.3
O=C1Oc2ccccc2C2c3sc(=O)[nH]c3SC(c3ccccc3)C12 (configuration not stated)	83.2
CCN(CC)S(=O)(=O)c1ccc(C(=O)Oc2coc(CSc3ncccn3)cc2=O)cc1	88.9
Nc1n[nH]c(N)c1N=Nc1ccc(O)cc1	97.7
Going on with the list.
SMILES	RVFV N-RNA inh
N/C(COc1ccc(-c2nnco2)cc1)=N\OC(=O)c1cccc(C(F)(F)F)c1	91.2
COC(=O)c1sccc1OCc1ccc(Cl)cc1	96.6
O=C(Nc1nccs1)C1C2/C=C\CCCCC21 (configuration not stated)	93.9
Nc1n[nH]c(CCCc2nc(N)n[nH]2)n1	80.9
C=CCn1c(SCC(=O)c2ccccc2)nnc1-c1cc2ccccc2o1	94.4
CC1CCN(C(=O)c2ccc(NS(=O)(=O)c3ccccc3)cc2)CC1	95.2
Ic1cccc(CSc2nnc(-c3ccncc3)o2)c1	102.2
CCC(=O)c1ccc(OCC(O)CNC2CCCCCC2)cc1 (configuration not stated)	96.7
C/C=C(\C)CN1CCN(CCOCCO)CC1	98.1
C#CCN1C(=O)S/C(=C/c2cc(C)n(CC)c2C)C1=O	70.1
CCc1ccc(/C=C2/C(=O)N(C)C(=S)N2C)cc1	94.9
NC(N)=NCCNS(=O)(=O)c1cccc2cnccc12	103.6
CC1=C(C(=O)OCc2ccccc2)C(c2ccccc2)N(C)C(=O)N1C (configuration not stated)	93.0
CC(C)(C)C1CCC(NN2CCOCC2)CC1 (configuration not stated)	103.1
O=C(NCCOc1ccccc1)c1n[nH]c(=O)c2ccccc12	101.9
COc1ccc(CNC(=O)c2nc3ncccn3n2)cc1	93.5
O=C(CSc1nnc2ccccn12)c1ccccc1	94.1
CC(C)(C)c1ccc(S(=O)(=O)N=S2CCN(c3ncc(C(F)(F)F)cc3Cl)CC2)cc1	95.0
CS(=O)(=O)N1CCCC(C(=O)NC2CCCC2)C1 (configuration not stated)	107.1
O=c1ccc(-c2cccs2)nn1Cc1ccccc1	92.6
O=C(O)c1cccc(S(=O)(=O)NCC2CCCO2)c1 (configuration not stated)	94.6
Cc1cc(C#N)c2c(c1)-c1ccccc1CC2	95.0
CC1(N2CCOCC2)CC2(O)C(=[N+]1[O-])CCC/C2=N\O (configuration not stated)	100.9
CC1=NN(c2ccc(C)cc2)C(=O)C1	94.4
N#Cc1ccc(OCC(=O)N2CCCCC2)cc1	96.2
The list continues:
SMILES	RVFV N-RNA inh
CC(C)(C)NC(=O)[C@@H]1C[C@@H]2CCCC[C@@H]2CN1C[C@@H](O)[C@H](Cc1ccccc1)NC(=O)[C@H](CC(N)=O)NC(=O)c1ccc2ccccc2n1	93.6
CCCC(=O)c1c(NC(C)C)cc(C)oc1=O	88.2
Cc1c2n(c3ccccc13)CC/C2=N\O	89.4
O=C(OCC(=O)c1ccccc1Cl)c1cnccn1	74.4
CCCCC(C(=O)O)N1C(=O)/C(=C/c2cccnc2)SC1=S (configuration not stated)	96.2
COc1cccc(C(=O)Nc2c(C(=O)Nc3ccccc3F)oc3ccccc23)c1OC	95.4
CCOP(=O)(c1ccccc1)C(O)c1ccc(Br)cc1 (configuration not stated)	89.8
COC(=O)COc1ccc2oc(=O)cc(-c3cc4ccccc4o3)c2c1	95.3
O=C(NC(CO)CCO)c1ccccc1 (configuration not stated)	96.0
CCOC(=O)C1=C(N)Oc2cc(O)ccc2C12C(=O)N1c3c(cccc32)C(C)CC1(C)C (configuration not stated)	103.4
CC1SC2(CCCCC2)NC1=O (configuration not stated)	89.4
O=c1/c(=C/c2cccnc2)sc2n1CN(c1ccccc1)CN=2	99.1
CN1CCc2cccc3c2C1Cc1ccc(O)c(O)c1-3 (configuration not stated)	88.7
CC1(C)CC(=O)c2c(C#N)sc(C#N)c2C1	98.5
COc1ccc(N=Cc2ccc[nH]2)cc1	97.8
CC(C)(C)CC(=O)NCc1cccs1	79.3
O=c1c2ccccc2nnn1-c1ccc(Br)cc1	88.3
Nc1ccc2cn[nH]c2c1	100.1
Cc1ccc(-n2c(C)c3c(C)nnc(C)c3c2C)cc1C	101.0
CS(=O)(=O)/C(C#N)=C/Nc1ncccn1	97.4
Nc1nnc(SCC(=O)N2CCCCC2)n1CC(=O)N1CCCCC1	99.4
Cc1ncc2c(N)ncnc2n1	92.7
O=c1oc2ccccc2n1Cc1cc2c(cc1Br)OCO2	91.5
O=C(CC(NCCC1=CCCCC1)C(=O)O)Nc1ccccc1Cl (configuration not stated)	96.7
COc1ccc(-n2nnc3c(SCC(=O)NCC4CCCO4)ncnc32)cc1 (configuration not stated)	95.7

Three entries from above, set out differently.
Molecule,RVFV N-RNA inh
C=CCn1c(SCC(=O)c2ccccc2)nnc1-c1cc2ccccc2o1,94.4
CC1CCN(C(=O)c2ccc(NS(=O)(=O)c3ccccc3)cc2)CC1,95.2
Ic1cccc(CSc2nnc(-c3ccncc3)o2)c1,102.2

(continued)
SMILES	RVFV N-RNA inh
CC(C)OP(C)(=O)CN1CCN(CP(C)(=O)OC(C)C)CC1 (configuration not stated)	91.7
Cc1cc(SCc2ccccn2)nc(=O)[nH]1	85.9
CN1CCN(NC(=O)CC(C)(C)C)CC1	93.8
Cc1ccc(C)c(NC(=O)CSc2nnc(CNC(=O)c3ccco3)n2-c2ccc(F)cc2)c1	94.4
CCCCC(Sc1nc(N)c(NC(=O)c2ccc(OC)cc2)c(=O)[nH]1)C(=O)O (configuration not stated)	105.8
CCCn1c(=O)c2c(nc3n2CCCN3c2ccc(OCC)cc2)n(C)c1=O	89.2
CC(C)(C)n1nc2c(c1NC(=O)/C=C\c1ccccc1)CS(=O)C2 (configuration not stated)	94.8
O=C(c1ccc2nccnc2c1)N1CCc2ccccc2C1	97.1
COC(=O)c1cc(OC)c(OC)cc1NC=C(C#N)C#N	91.3
CC(C)(C)c1ccccc1OCCCSC#N	92.4
COC(=O)c1ccccc1NC(=O)Nc1ccc(N2CCOCC2)c2nonc12	91.1
COC(=O)/C(=C/c1ccc(F)cc1)NC(C)=O	91.9
CN=c1nc(-c2ccccc2)n(-c2ccccc2)s1	49.7*
COc1ccc(/C=C/C(=O)Nc2nc(N)n(-c3ccccc3)n2)cc1	100.8
CCCCC(=O)Nc1ccccc1C#N	94.6
CC(=O)Nc1c(OC(C)=O)c2ccccc2oc1=O	101.1
CCOC(=O)c1nn(-c2ccccc2)c(=O)cc1OCC(=O)NCc1ccc2c(c1)OCO2	91.0
Fc1ccc(C(OCCN2CCN(CCCc3ccccc3)CC2)c2ccc(F)cc2)cc1	95.3
Cc1ccc2c(c1)sc(=NC(=O)CN1C(=O)c3ccccc3C1=O)n2C	94.8
Cc1ccc(NC(=O)C23CCC(C)(C(=O)C2)C3(C)C)cc1 (configuration not stated)	99.0
Cc1cc(C)c(C=C2C(=O)OC(C)(C)OC2=O)[nH]1	93.6
CCOc1ccc2[nH]c3nc(=S)[nH]nc3c2c1	89.0
N[C@@H](CCCC(=O)O)C(=O)O	96.7
Cc1ccc(NNC(=O)c2cc(C)on2)c(C)c1	90.3
O=C(COc1ccc(Cl)cc1)Nc1ccc2c(c1)CCCN2C(=O)C1CC1	92.5
(next part)
SMILES	RVFV N-RNA inh
O=C1CCC(c2ccc(Br)cc2)=NN1	97.3
CC(C)NC(=O)Nc1cccc(Cl)c1	92.2
CN(Cc1ccccc1)C(=O)c1cnc2n(c1=O)CCS2	99.9
CNS(=O)(=O)c1ccc2c(S(=O)(=O)NC)c(OC)ccc2c1	90.8
COc1cccc2c1CCN(Cc1cccc(C)c1)C2=O	97.5
COC(=O)c1cc(NC(=S)NN2CCOCC2)cc(C(=O)OC)c1	103.1
O=C(C1CCCCC1)N1CCN(c2ccc(N3CCCCCC3)nn2)CC1	94.9
CN(CC[C@@H](Oc1ccc(C(F)(F)F)cc1)c1ccccc1)CC(=O)O	99.5
C/C=C/c1c(F)c(F)c(Oc2ccc(C(=O)O)cc2)c(F)c1F	92.5
CCC(CO)Nc1nc(NCc2ccccc2)c2ncn(C(C)C)c2n1 (configuration not stated)	99.3
OC(COC1CCCCC1)Cn1cnc2ccccc21 (configuration not stated)	93.5
O=C(c1ccc(Cl)cc1)N1CCCn2c1nc1ccccc12	94.9
Cc1ccc(N2CC(NC(=O)OCCN(C)C)CC2=O)cc1 (configuration not stated)	99.2
CCSc1nnc(CNC(=O)C23CC4CC(CC(C4)C2)C3)n1CC	96.5
CN(C)/C=C1/C(=O)N(c2ccccc2)N=C1C(F)(F)F	100.9
Cc1nc2cc(C(=O)c3ccccc3)ccc2[nH]c1=O	99.7
O=S(=O)(/C=C/c1ccccc1)c1ccc(F)cc1F	93.6
c1ccc(OCc2nnc3n2N=C(c2ccccc2)CS3)cc1	87.3
CCOC(=O)c1cc(C#N)c(SC)nc1-c1ccccc1	90.8
Cc1onc(C(=O)NN)c1-c1csc(-c2ccccc2)n1	93.0
O=C1c2ccccc2C(=O)N1CCCc1nn2c(-c3cccnc3)nnc2s1	96.4
O=C(N/N=C/c1ccc(Cl)cc1)c1cc(=O)nc2sccn12	76.3

Of the compounds above, 15 have fluorine.
SMILES	RVFV N-RNA inh
COCC(=O)N1N=C(c2cccc(NS(C)(=O)=O)c2)CC1c1ccccc1F (configuration not stated)	90.5
CCC(=O)NC(Nc1cc(C)ccn1)(C(F)(F)F)C(F)(F)F	89.7
Cc1c(O)ccc(C(=O)CN2CCN(c3ccc(F)cc3)CC2)c1O	91.6
COCc1cc(=O)[nH]c(-c2ccc(C(F)(F)F)cn2)n1	100.9
CN1CCN(c2c(F)cc3c(=O)c(C(=O)O)cn(CCF)c3c2F)CC1	95.3
N/C(COc1ccc(-c2nnco2)cc1)=N\OC(=O)c1cccc(C(F)(F)F)c1	91.2
CC(C)(C)c1ccc(S(=O)(=O)N=S2CCN(c3ncc(C(F)(F)F)cc3Cl)CC2)cc1	95.0
COc1cccc(C(=O)Nc2c(C(=O)Nc3ccccc3F)oc3ccccc23)c1OC	95.4
Cc1ccc(C)c(NC(=O)CSc2nnc(CNC(=O)c3ccco3)n2-c2ccc(F)cc2)c1	94.4
COC(=O)/C(=C/c1ccc(F)cc1)NC(C)=O	91.9
Fc1ccc(C(OCCN2CCN(CCCc3ccccc3)CC2)c2ccc(F)cc2)cc1	95.3
CN(CC[C@@H](Oc1ccc(C(F)(F)F)cc1)c1ccccc1)CC(=O)O	99.5
C/C=C/c1c(F)c(F)c(Oc2ccc(C(=O)O)cc2)c(F)c1F	92.5
CN(C)/C=C1/C(=O)N(c2ccccc2)N=C1C(F)(F)F	100.9
O=S(=O)(/C=C/c1ccccc1)c1ccc(F)cc1F	93.6
